Biofilm kill mix: mixtures killing C. albicans biofilm; C. albicans biofilm persisters + clotrimazole, fluorescence viability; primary screen in compound mixtures of four per well; 120,000 compounds, 0.02% hits; inhibition, % at 7.6 µM; AID 1242;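 active means inhibition above 30.3% in the primary screen of four-compound pools, then above 30% when the compound was retested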;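 further: compounds exposed to preformed 24 h biofilms for 48 h; the number belongs to the whole pool; some results filed as inactive read as strong as hits; inactives centre near 12; 0% = biofilm with clotrimazole alone and 100% = kill control; retested singly at about 60 µM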
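Probe or stimulus – Clotrimazole 50 µg/mL co-treatment · System – C. albicans biofilms · Schedule – 24 h biofilm formation, then 48 h compound exposure, 37 °C · Evaluation – percent inhibition of biofilm viability · Technique – 2-h Alamar Blue fluorescence, 535/590 nm excitation/emission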
* marks the source's active call; other numbers are inactive results. These rows are one share of the data; the hit share may differ from the screen's.

Compound | Biofilm kill mix
O=C(c1nc(SCc2ccc([N+](=O)[O-])cc2)n2ccccc12)C(F)(F)F | 17
CCOc1cc(C=O)cc(Br)c1OCC(N)=O | 13
CC(C)(C)NS(=O)(=O)c1ccc(/C=C/C(=O)O)cc1 | 7
CC(C)NCC#CCOc1ccc(Cl)cc1 | -15
Cc1cc(C)nc(S/C=C/C(=O)c2ccc(F)cc2)n1 | 19
CN1C(=O)CC(Nc2cccc3cccc(N)c23)C1=O (stereo not drawn) | -4
COc1cc(C2C(C#N)=C(N)Oc3n[nH]c(-c4cccs4)c32)cc(OC)c1O (stereo not drawn) | 3
CCn1cc([N+](=O)[O-])c(C(=O)Nc2ccn(Cc3ccccc3)n2)n1 | 14
O=C(O)c1ccccc1-c1cn2cc(Cl)ccc2n1 | 15
COc1ccccc1-c1nn(Cc2ccccc2)cc1/C=C/C(=O)O | 18
O=C(CCCN1C(=O)/C(=C\c2cccs2)SC1=S)Nc1cccnc1 | 19
COC(=O)CSC1=C(C#N)C(c2ccc(C)o2)CC(=O)N1 (stereo not drawn) | 23
CC(C)(CO)NCc1cccs1 | 11
COc1cc(C(=O)OCCC(C)C)cc(OC)c1O | 1
O=C(CN1CCOc2ccccc21)N1CCCC1 | 6
O=[N+]([O-])c1ccccc1OCC(O)CNC1CCCC1 (stereo not drawn) | 22
CN(Cc1ccccc1)C(=O)C1CCC(CNS(=O)(=O)c2cccc3cccnc23)CC1 (stereo not drawn) | 30
C=CCn1c(Cc2ccccc2)nnc1SCc1nc2ccccc2c(=O)[nH]1 | 15
COc1ccc(C2=NO[C@@H]3[C@@H]4C[C@@H]([C@H]5C(=O)N(C)C(=O)[C@@H]45)[C@H]23)c(OC)c1 | 21
COC(=O)Nc1ccccc1C(=O)N1CCN(c2ccc(C)cc2)CC1 | 8
Cc1[nH]ccc2c1[nH]c1cc(=O)ccc12 | 18
CCOC(=O)c1cc(-c2ccc(Cl)cc2)nc2c1c(=O)[nH]c(=O)n2CCOC | 11
COC(=O)c1cn(CC(=O)Nc2ccc(F)cc2)c2ccccc12 | -1
Cc1ccsc1/C=N\Nc1cn[nH]c(=O)c1Cl | 5
CC(C)Cn1c(N)cc(=O)n(C)c1=O | 9
CCCCc1cn([C@@H](CCCCN)C(=O)N2CCNCC2)nn1 | 18
O=C(C1=NNCC1c1ccccc1)C1OC1c1ccccc1 (stereo not drawn) | 17
COc1ccc(N2C(=O)CC(N(CCc3ccc(OC)c(OC)c3)C(=S)Nc3ccccc3)C2=O)cc1 (stereo not drawn) | 11
O=C(COC(=O)Cn1cnc2ccccc21)NCc1ccc(F)cc1 | 8
CN(C)c1ccc(N/C=C/C(=O)C(F)(F)F)cc1 | 17
O=C(O)c1ccc(N/N=C/C2=C(N3CCOCC3)C(=C\c3ccccc3)/CC2)cc1 | 11
C(=N\Nc1nncn1/N=C/c1ccco1)/c1ccco1 | 24
CCC(=O)/C=C1/Sc2ccc(OC)cc2N1CCO | 18
C=C(C)CSc1cc(C)nc2c(-c3ccccc3)c(C)nn12 | 6
CCN1CCN(C(c2ccccc2)c2nnnn2Cc2ccc(OC)cc2)CC1 (stereo not drawn) | 13
CCN1CCN(C(=S)c2ccc(O)cc2)CC1 | 18
COc1ccc(NC(=O)Cn2cnc3sc(C)c(S(=O)(=O)N4CCOCC4)c3c2=O)c(OC)c1 | 5
CCOC(=O)CSc1nnc(Cc2ccccc2)n1-c1ccc(C)cc1 | 8
O=C(C1CCCCN1S(=O)(=O)c1ccccc1[N+](=O)[O-])N1CCCC1 (stereo not drawn) | 4
CC(=O)Nc1ccc(NC(=O)C2(C)CC2(Cl)Cl)cc1 (stereo not drawn) | 11
CCCCc1nc(SCC(=O)Nc2nnc(CCCC)s2)n[nH]1 | 16
Cc1nn(-c2ccccn2)c2c1C(c1c(F)cccc1Cl)C1=C(N2)c2ccccc2C1=O (stereo not drawn) | 20
CC1CCN(C(=O)c2[nH]cnc2C(=O)N[C@@H](C)C(=O)OCc2ccccc2)CC1 | 15
Cn1c(=O)c2c(nc(NCc3ccccc3)n2CC(N)=O)n(C)c1=O | 8
COc1cc(/C=C2\COC/C(=C\c3ccc(O)c(OC)c3)C2=O)ccc1O | 5
COc1ccccc1/C=C1\CCCC2=C1Nc1nnnn1C2c1ccccc1OC (stereo not drawn) | 16
CC1S/C(=N/N=C/c2ccco2)N(Cc2ccccc2)C1=O (stereo not drawn) | 3
CCCCC(=O)Nc1ccccc1CC | 19
NC(=O)/C=C\c1cn(-c2ccccc2)nc1-c1ccc2c(c1)OCCO2 | 14
CCCCC(C(=O)O)C(C)CC(=O)Nc1nccs1 (stereo not drawn) | 30

Later entries
Compound | Biofilm kill mix
COc1ccc(C2c3ccc(O)cc3Oc3ncn4nc(-c5ccccn5)nc4c32)cc1OC (stereo not drawn) | 19
Cc1ccc(-n2c(=O)c3ccc(C(=O)NCc4ccco4)cc3n(Cc3ccccc3C#N)c2=O)cc1 | -9
O=C(COc1ccc(Cl)cc1[N+](=O)[O-])N/N=C/c1cccs1 | 13
Cn1c(=O)c2c(nc(NCc3cccnc3)n2Cc2ccccc2Cl)n(C)c1=O | 17
COc1ccc(NC(=S)N2CCCCCC2)cc1OC | 5
OCCNc1nc(-c2ccccc2)nc2c1oc1ccccc12 | 19
COC(=O)c1sccc1NC(=O)C1CC1 | 8
CC(=O)N(c1ccccc1)c1nc(/C=C/C(=O)Nc2c(C)cc(C)cc2C)cs1 | 16
Cc1cccc(N=C(NO)c2nonc2N)c1 | 9
COc1ccc(CC(=O)NCc2nc(-c3ccccc3)no2)cc1 | 9
Cc1c(NC(=O)c2cccnc2C(=O)O)cccc1C(=O)O | 11
Cn1c(=O)c2c(SCC(=O)Nc3nccs3)nc(C3CC3)nc2n(C)c1=O | 16
N#C/C(=C\c1ccccc1C(F)(F)F)C(=O)Nc1ccccc1 | 21
Cc1ccc2c([N+](=O)[O-])cccc2n1 | 7
Cc1c(N=C/C=C2/N(C)c3ccccc3C2(C)C)c(=O)n(-c2ccccc2)n1C | 9
Oc1nc(Nc2ccccc2)sc1/C=C1\C=Nc2ccccc21 | -2
O=C(COC(=O)c1ccc2c(c1[N+](=O)[O-])C(=O)c1ccccc1C2=O)NC1CC1 | 20
NC(=O)[C@@H]1CCCN1Cc1nc(-c2ccc(C(F)(F)F)cc2)no1 | 12
CCc1ccc(/C=N/Nc2nn[nH]n2)cc1 | 13
COc1ccccc1/C=C(\NC(=O)c1ccc(OC)c(OC)c1)C(=O)Nc1cc([N+](=O)[O-])ccc1C | 17
Cc1cc(OC(=O)Cc2cccc3ccccc23)c([N+](=O)[O-])c(=O)[nH]1 | 10
Cn1cc(C(=O)NCc2cccs2)c(=O)c2cc(S(=O)(=O)N3CCCC3)ccc21 | 9
CCC(=O)N1CCN(CCN=CC2=C(O)CC(c3ccc(OC)cc3)CC2=O)CC1 (stereo not drawn) | 6
COc1ccc(C2CC(c3cccs3)=NN2c2nc(C)c(C(C)=O)s2)cc1OC (stereo not drawn) | 9
Cc1ccc(OCc2nnc(SCC(=O)Nc3ncc(C)s3)o2)cc1 | 26
Cc1cc(C)c(S(=O)(=O)/N=C2/C=C(Sc3ncn[nH]3)C(=O)c3ccccc32)cc1C | 20
COc1ccc(-c2nn(CCC#N)cc2/C=N/O)cc1OC | 6
CCNS(=O)(=O)c1ccc(CCC(=O)NCc2ccc(C)cc2)cc1 | 4
COc1ccc(C(=O)Nc2ccccc2N2CCOCC2)cc1[N+](=O)[O-] | 16
O=C(CCN1CCCCCC1)Nc1ccccc1F | 17
Cn1c(N)c(C(=O)COC(=O)CSc2ccc(Cl)cc2)c(=O)n(C)c1=O | 4
O=C(c1cnc2nc3ccccc3n2c1)c1cc(F)ccc1O | 4
COc1ccc(/C=C/C(=O)O/N=C(\N)c2cccnc2)cc1OC | -10
Cc1ccc(OCc2ccc(C(=O)NCc3cccnc3)cc2)cc1C | 17
CC(NC(=O)c1cc(Br)ccc1Cl)c1ccccc1 (stereo not drawn) | 3
COc1ccc(-c2cn(-c3ccc(SC(F)F)cc3)c3[n+]2CCC3)cc1OC | 23
Cc1ccccc1NC(=O)CSc1nc(O)cc(=O)n1C | 19
N#Cc1ccc(NC(=S)Nc2ccccc2)cc1 | 8
O=C(NCCO)C1CCN(C(=O)c2ccc(-c3ccccc3)cc2)CC1 | 18
CCC(C)NC(=O)Nc1ccc(Br)cc1Cl (stereo not drawn) | 0
NS(=O)(=O)c1ccc(CCNC(=O)Cc2ccc(S(=O)(=O)N3CCCC3)s2)cc1 | 14
CCN(CC)S(=O)(=O)c1ccc(/C=C/C(=O)Nc2ccccc2N2CCOCC2)cc1 | 4
COCC1CCCN(Cc2nc(Cc3ccccc3)no2)C1 (stereo not drawn) | 9
Cc1cc(C)c(OCC(=O)Nc2ccc(NC(=O)c3ccco3)cc2)c([N+](=O)[O-])c1 | 7
COc1ccccc1N(CC(O)COc1c(C)cc(C)cc1C)S(=O)(=O)c1ccccc1 (stereo not drawn) | 14
NC(=O)CC(NC(=O)c1ccccc1)c1ccc(NCCOc2ccccc2)c([N+](=O)[O-])c1 (stereo not drawn) | 10
CCN(CC)CCNC(=O)c1ccc(Sc2ccc(C)cc2)c(NC(C)=O)c1 | 14
O=C(NNC(=S)NC(=O)c1sc2ccccc2c1Cl)c1ccc(Cl)cc1 | 2
C[C@@H](C(=O)OCC(=O)Nc1cc(S(=O)(=O)N2CCOCC2)ccc1Cl)N1C(=O)C2CCCCC2C1=O (stereo partly drawn) | 9
C=CCN1CN(CCc2ccccc2)CNC1=S | 13

(listing goes on)
Compound | Biofilm kill mix
CCN1CCN(C(=O)c2ccc(CN(c3ccc(C)c(C)c3)S(C)(=O)=O)cc2)CC1 | 17
Cc1sc2ncnc(SCC(=O)c3ccc(O)cc3O)c2c1C | 13
C[C@H]1CC[C@@]2(O[C@H](CCO)C[C@@H](O)[C@@H]2O)O1 | 16
CN(CCc1cnn(C)c1)Cc1cn(C)nc1-c1ccc2c(c1)OCCO2 | 7
CCCn1nc(C(=O)OCC(=O)c2c(N)n(C)c(=O)n(C)c2=O)c2ccccc2c1=O | 15
Cc1csc(SC(C)c2nc3scc(-c4ccccc4)c3c(=O)[nH]2)n1 (stereo not drawn) | 4
COC(C/C=C/[C@@H](O)COCc1ccccc1)OC | 13
Cc1ccc(S(=O)(=O)Nc2ccccc2/C=N/c2nc3ccccc3n2C(C)C)cc1 | 12
Cc1ccc(S(=O)(=O)N(C)CCCC(=O)Nc2cccc3ccccc23)cc1 | 6
CC(=O)Nc1sc(NC(=O)c2ccc(C)cc2)nc1-c1cccs1 | 11
O=C(NNC(=O)c1ccccc1Cl)c1ccco1 | 29
C/C(CC(=O)Nc1cc(C)cc(C)c1)=N\NC(=O)c1ccccn1 | 17
CCCNCC(O)Cn1c2ccccc2n2c(=O)cc(C)c(C#N)c12 (stereo not drawn) | -2
COc1ccc(-c2csc(NC(=O)COC(=O)c3ccco3)n2)cc1 | 21
Clc1ccc(SCCN2CCNCC2)cc1 | 30
c1ccc(CN2C3=NCCN3c3ccccc32)cc1 | 9
C/C(CCN1CCCCc2nc(C)c(C)cc21)=N\O[C@@H](C)CN1CCCCc2nc(C)c(C)cc21 | 29
CN(C)S(=O)(=O)c1cccc(NC(=O)CCc2c[nH]c3ccccc23)c1 | 20
Cc1onc(-c2c(F)cccc2Cl)c1C(=O)NC(=S)NCc1cccnc1 | 15
CCCCC[n+]1ccn(C2=C([O-])c3ccccc3C(=O)/C2=N\S(=O)(=O)c2ccc(Br)cc2)c1 | 7
O=c1c2cn[nH]c2nc(SCc2c(F)cccc2F)n1-c1ccc(Cl)cc1 | 14
COCc1c(CCl)cnc(C)c1O | -5
CCOc1ccc(NC(=O)N(C2CCCC2)C2CCN(C(C)=O)CC2)cc1 | 13
COc1ccc(Cc2nnc(NC(=O)Cn3cnc4c3c(=O)n(C)c(=O)n4C)s2)cc1 | 16
CCOc1ccc(-c2nc(N)ncc2Oc2ccc(OC)cc2)c(O)c1 | 10
O=C(N/N=C/c1sc(N2CCOCC2)nc1-c1ccccc1)c1ccccc1O | 4
COc1cc2c(cc1OC)C(Cc1ccc(O)cc1)N(C)CC2 (stereo not drawn) | 15
S=C(N/N=C1\CCc2ccccc21)NC1CCCCC1 | 15
Cc1cc(F)ccc1S(=O)(=O)N(C(=O)c1ccncc1)c1ccc(OC(=O)c2ccncc2)cc1 | 23
O=C(COC(=O)CCC(=O)c1ccc(F)cc1)Nc1cccc(S(=O)(=O)N2CCOCC2)c1 | 12
O=C(O)Cn1nnnc1SCC(=O)Nc1ccc(F)cc1F | 17
CCOC(=O)CCCNC(=O)CSc1nc2ccc(OCC)cc2[nH]1 | 8
Cc1ccc(NC(=O)C(=O)NCCCN2CCOCC2)c(C)c1 | 25
COc1ccc2[nH]c(C)c(CCNC(=S)Nc3ccccc3C)c2c1 | 8
Cc1ccc2[nH]c(=O)c(CN(Cc3cccs3)C(=S)NCC3CCCO3)cc2c1 (stereo not drawn) | 11
